High-throughput results (PubChem)
Hedgehog inh – Hedgehog pathway signaling inhibitors, primary screen, luminescence, Shh-LIGHT2 cells, Gli-luciferase. 22,000 tested, 2.1% active. Shh-LIGHT2 Gli-luciferase reporter, 30 h. AID 2313, 2010. inhibition, % (no concentration beside the values);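 active = replicate mean of 65% or more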;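 also: pathway switched on by Shh-conditioned medium diluted 1 in 25 in low serum; 100 nL library stock added to about 40 µL; 0% = median of neutral wells and 100% = positive control level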
MITF inh – inhibitors of MITF, primary screen, MITF inhibitor project, cell-based, luminescence; TRPM1 promoter luciferase, 24 h; inhibition, % (concentration not given with the values); 37,000 tested, 0.28% active;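 active = most replicates at 85% or more, or half of them and the mean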;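 also: human melanocyte line stably carrying TRPM1 promoter luciferase reporter; 0% = vehicle wells and 100% = a positive control; the first replicate is given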
YB-1 expr inh – inhibitors of YB-1 gene expression, primary screen, cell-based, fluorescence. U2OS, qRT-PCR YB-1 vs CDIP delta delta Cp, 16 h; hits give high values; zero = DMSO, each unit about twofold. delta delta Cp (YB-1 minus CDIP) (no concentration beside the values). 30,000 tested, 0.37% active;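 active = delta delta Cp rounded down to an integer at or above 3, about 3 SD of DMSO wells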;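 also: higher means less YB-1 transcript or more CDIP transcript relative to DMSO; stock transfer was 100 nL into about 100 µL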
PD-1 reverse act – activators reversing PD-1 mediated T-cell inhibition, primary screen, luminescence, primary human CD4 T cells, PD-L1 beads | CellTiter-Glo 96 h | activation, % (no concentration beside the values) | 29,000 tested, under 10 active | AID 2316, 2010;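 active = replicate mean of 50% or more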;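 also: 0% = median vehicle wells and 100% = positive control; 100 nL library stock added to about 50 µL; numbers are from one replicate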
Numbers without * were called inactive; . = not tested or not shown.

SMILES	MITF inh	PD-1 reverse act	Hedgehog inh	YB-1 expr inh
CC(C)NC(=O)Nc1cccc2c1O[C@@H](CN(C)C(=O)Nc1ccc3c(c1)OCO3)[C@@H](C)CN([C@@H](C)CO)C2=O	8	1.0	-1	0.25
Cc1cc(Nc2ccc(F)c(Cl)c2)nc(NC(=O)C(C)(C)C)n1	6	0.3	-3	0.15
Cc1ccc(S(=O)(=O)Nc2ccc3c(c2)C(=O)N([C@H](C)CO)C[C@@H](C)[C@@H](CN(C)Cc2ccc(Cl)c(Cl)c2)O3)cc1	44	-0.9	41	-0.55
COc1ccc(OC)c(S(=O)(=O)N(C)CC(=O)N2CCN(c3cccc(Cl)c3)CC2)c1	-3	1.0	.	.
C[C@@H]1CN([C@@H](C)CO)C(=O)c2cc(NC(=O)Nc3ccccc3)ccc2O[C@H]1CN(C)S(=O)(=O)c1cccs1	-32	.	.	0.34
C[C@H](CO)N1C[C@H](C)[C@@H](CN(C)Cc2ccc(-c3ccccc3)cc2)Oc2ccc(NC(=O)CCN3CCOCC3)cc2C1=O	-5	-1.3	16	0.19
COc1ccc(S(=O)(=O)Nc2ccc3c(c2)CC(=O)N([C@@H](C)CO)C[C@H](C)[C@H](CN(C)S(C)(=O)=O)O3)cc1	1	0.7	-15	0.015
C[C@H](CO)N1C[C@H](C)[C@H](CN(C)C(=O)Nc2ccc3c(c2)OCO3)Oc2ccc(NC(=O)c3ccncc3)cc2C1=O	-15	-0.7	-12	0.033
CC(=O)O[C@@H]1CC2C(C)(C)[C@H](O)C[C@H](O)[C@]2(C)C2CC[C@@]3(C)[C@H](c4ccoc4)OC(=O)[C@H]4O[C@]43[C@@]21C (some centres undefined)	3	.	-8	-0.39
O=c1ccc2ccc(O)c(O)c2o1	-7	.	-6	-0.26
COc1ccc(CN(C)C[C@H]2Oc3ccc(NS(=O)(=O)c4ccc(Cl)cc4)cc3CC(=O)N([C@@H](C)CO)C[C@H]2C)cc1	-4	.	.	-0.094
CC(C)CCCC(C)(O)c1ccc(C(=O)O)cc1O (centres undefined)	-26	1.0	-25	1.2
Cc1c(Cl)cccc1NC(=O)Cn1cnc2sc(C(=O)Nc3ccccc3)c(C)c2c1=O	30	1.3	.	.
COc1ccc(N(CC(=O)Nc2ccc(Cl)c(Cl)c2)S(C)(=O)=O)cc1OC	9	-1.9	.	.
Cc1noc(C)c1NC(=O)Nc1cccc2c1O[C@@H](CN(C)C(=O)Nc1ccc(F)cc1)[C@H](C)CN([C@@H](C)CO)C2=O	-3	.	-7	-0.52

Among those listed so far, these contain a thiophene ring, fused or not.
SMILES	MITF inh	PD-1 reverse act	Hedgehog inh	YB-1 expr inh
C[C@@H]1CN([C@@H](C)CO)C(=O)c2cc(NC(=O)Nc3ccccc3)ccc2O[C@H]1CN(C)S(=O)(=O)c1cccs1	-32	.	.	0.34
Cc1c(Cl)cccc1NC(=O)Cn1cnc2sc(C(=O)Nc3ccccc3)c(C)c2c1=O	30	1.3	.	.

(listing goes on)
SMILES	MITF inh	PD-1 reverse act	Hedgehog inh	YB-1 expr inh
CS(=O)(=O)CS(=O)(=O)C1=C(N2CCOCC2)C2CCN1CC2	-10	-0.5	-7	0.1
COc1cc(C[C@H]2C(=O)OC[C@@H]2Cc2ccc(OC)c(OC)c2)ccc1O	.	.	40	0.72
COc1ccc(C)cc1S(=O)(=O)N(C)CC(=O)Nc1ccc(F)cc1	-13	1.5	.	.
CC(O)(C(=O)Nc1ccc(S(=O)(=O)c2ccccc2)cc1)C(F)(F)F (centres undefined)	-5	.	-69	-0.079
COc1ccc(NC(=O)c2ccc(N(C)S(=O)(=O)c3ccc(OC)c(OC)c3)cc2)c(OC)c1	17	-0.6	.	.
C[C@@H]1CN([C@@H](C)CO)C(=O)c2cc(N(C)C)ccc2O[C@@H]1CN(C)C(=O)Nc1ccccc1	0	0.2	-4	0.0072
Cc1cc(C)c(S(=O)(=O)NCCN2CCN(S(=O)(=O)c3c(C)cc(C)cc3C)CC2)c(C)c1	0	-3.0	.	.
C[C@@H]1CCCCO[C@H](CN(C)C(=O)Nc2ccccc2)[C@@H](C)CN([C@H](C)CO)C(=O)c2cc(NC(=O)Nc3ccc(C(F)(F)F)cc3)ccc2O1	-17	-7.2	8	0.48
C[C@@H]1CN([C@H](C)CO)C(=O)Cc2cc(NC(=O)NC3CCCCC3)ccc2O[C@@H]1CN(C)C(=O)Nc1ccc(F)cc1	-1	-1.3	.	-0.36
C[C@H]1CN([C@@H](C)CO)C(=O)c2cc(NC(=O)CCCCCC(=O)Nc3ccccc3N)ccc2O[C@@H]1CN(C)S(=O)(=O)c1ccccc1	2	1.1	.	0.0021
COc1ccc(CN(C)C[C@H]2Oc3c(NS(=O)(=O)c4cn(C)cn4)cccc3C(=O)N([C@@H](C)CO)C[C@@H]2C)cc1	1	.	-7	0.23
C[C@H](CO)N1C[C@H](C)[C@@H](CN(C)Cc2ccccc2)Oc2ccc(N(C)C)cc2C1=O	17	0.5	-11	-0.035
O=C(CN1C(=O)c2ccccc2S1(=O)=O)Nc1ccc(Cl)cc1	34	0.5	.	.
Cc1ccc(S(=O)(=O)N(C)C[C@@H]2Oc3ccc(NS(=O)(=O)c4ccc(F)cc4)cc3CC(=O)N([C@H](C)CO)C[C@H]2C)cc1	-10	-0.7	-13	0.18
C[C@@H]1CN([C@H](C)CO)C(=O)c2cccc(NC(=O)Nc3ccc(C(F)(F)F)cc3)c2O[C@H]1CN(C)C(=O)Nc1cccc2ccccc12	28	.	-4	0.38

(more compounds)
SMILES	MITF inh	PD-1 reverse act	Hedgehog inh	YB-1 expr inh
C[C@H]1CN([C@@H](C)CO)C(=O)Cc2cc(NC(=O)Cn3cnnn3)ccc2O[C@H]1CN(C)Cc1ccc(C(=O)Nc2ccccc2N)cc1	-15	-0.8	.	-0.39
CC(C)NC(=O)N(C)C[C@@H]1Oc2ccc(NS(=O)(=O)c3ccccc3)cc2C(=O)N([C@H](C)CO)C[C@@H]1C	-7	-0.9	.	0.18
COc1ccc(NC(=O)N(C)C[C@@H]2Oc3c(NC(=O)c4nc5ccccc5s4)cccc3C(=O)N([C@@H](C)CO)C[C@@H]2C)cc1	-24	1.0	23	0.12
CC(C)NC(=O)N(C)C[C@@H]1OCCCC[C@@H](C)Oc2ccc(NC(=O)C3CCCCC3)cc2C(=O)N([C@H](C)CO)C[C@@H]1C	-4	.	44	-0.47
C[C@@H]1CN([C@@H](C)CO)C(=O)c2cc(NS(=O)(=O)c3cn(C)cn3)ccc2O[C@@H]1CN(C)S(C)(=O)=O	0	0.6	-68	-0.92
CC(=O)Oc1cccc(C(=O)O)c1OC(C)=O	-3	.	-10	-0.16
CNC[C@@H]1OCCCC[C@@H](C)Oc2ccc(NC(=O)Nc3ccc(OC)cc3)cc2C(=O)N([C@H](C)CO)C[C@@H]1C	7	-1.3	-27	-0.11
COc1cc2c(NC(C)=O)c(CN(C)C)oc2c(Cl)c1Cl	-2	0.2	.	-0.88
C[C@H](CO)N1C[C@H](C)[C@@H](CN(C)Cc2ccncc2)Oc2c(cccc2N(C)C)C1=O	-8	.	-7	-0.3
C[C@@H]1CN([C@H](C)CO)C(=O)c2cccc(NC(=O)c3ccncc3)c2O[C@@H]1CN(C)C(=O)Nc1ccccc1	-1	1.7	-63	0.43
CC(=O)Nc1ccc(NC(=O)CN(C2CCCCC2)S(C)(=O)=O)cc1	-6	1.6	.	.
Cc1cccc(NC(=O)CSc2nc3ncnc(N)c3[nH]2)c1	-13	2.4	.	.
C[C@@H]1CN([C@H](C)CO)C(=O)c2cc(NC(=O)Nc3ccc(C(F)(F)F)cc3)ccc2O[C@@H]1CN(C)Cc1ccc(C(=O)O)cc1	-22	0.4	-21	0.22
C[C@@H]1CN([C@@H](C)CO)C(=O)c2cccc(NS(=O)(=O)c3cn(C)cn3)c2O[C@@H]1CN(C)S(=O)(=O)c1ccccc1	4	1.1	-21	0.088
CC(C)NC(=O)Nc1ccc2c(c1)CC(=O)N([C@H](C)CO)C[C@H](C)[C@H](CN(C)C)O2	0	.	-17	-0.19

Shown with values under each structure: part of the list above.
Results follow in this order: MITF inh | PD-1 reverse act | Hedgehog inh | YB-1 expr inh
CC(C)NC(=O)N(C)C[C@@H]1Oc2ccc(NS(=O)(=O)c3ccccc3)cc2C(=O)N([C@H](C)CO)C[C@@H]1C
→ -7 | -0.9 | . | 0.18
C[C@@H]1CN([C@@H](C)CO)C(=O)c2cc(NS(=O)(=O)c3cn(C)cn3)ccc2O[C@@H]1CN(C)S(C)(=O)=O
→ 0 | 0.6 | -68 | -0.92
Cc1cccc(NC(=O)CSc2nc3ncnc(N)c3[nH]2)c1
→ -13 | 2.4 | . | .

Next structures follow:
SMILES	MITF inh	PD-1 reverse act	Hedgehog inh	YB-1 expr inh
Cc1noc(C)c1NC(=O)Nc1ccc2c(c1)CC(=O)N([C@@H](C)CO)C[C@H](C)[C@H](CN(C)S(=O)(=O)c1cccs1)O2	-2	0.4	4	-0.18
C[C@@]12C[C@@H](c3ccoc3)OC(=O)[C@H]1CC[C@@]1(C)C(C(=O)O)=CCC[C@@H]21	.	.	-2	0.29
C[C@@H]1CN([C@H](C)CO)C(=O)c2cccc(NS(=O)(=O)c3ccc(F)cc3)c2O[C@H]1CN(C)S(=O)(=O)c1cn(C)cn1	-5	1.8	-13	-0.48
C[C@@H]1CN([C@H](C)CO)C(=O)Cc2cc(NC(=O)c3ccncc3)ccc2O[C@@H]1CN(C)C(=O)NC1CCCCC1	-24	0.1	.	-0.25
Cc1cc2ncc(-c3ccccc3)nc2cc1C	18	3.1	-152	-0.051
C[C@@H]1CN([C@H](C)CO)C(=O)c2cc(NC(=O)Nc3ccc4c(c3)OCO4)ccc2O[C@@H]1CN(C)Cc1ccc(C(F)(F)F)cc1	17	1.1	.	0.25
COc1ccc(Cl)cc1NC(=S)NCCCN1CCCC1=O	6	-1.9	.	.
C[C@H]1CN([C@@H](C)CO)C(=O)Cc2cc(NS(=O)(=O)c3ccccc3)ccc2O[C@H]1CN(C)Cc1ccc(Cl)c(Cl)c1	23	0.2	48	0.11
Cc1ccc(S(=O)(=O)N(C)C[C@H]2Oc3ccc(NC(=O)C4CCCCC4)cc3C(=O)N([C@H](C)CO)C[C@@H]2C)cc1	15	0.3	5	0.094
CN(C)CCNc1nc(-c2noc(NCCN(C)C)n2)no1	-14	0.8	6	-0.035
Cc1ccc(S(=O)(=O)Nc2ccc3c(c2)CC(=O)N([C@H](C)CO)C[C@@H](C)[C@@H](CN(C)S(=O)(=O)c2cccs2)O3)cc1	-6	-3.1	-84	0.16
C[C@H](CO)N1C[C@H](C)[C@@H](CN(C)S(=O)(=O)c2cn(C)cn2)Oc2c(NS(=O)(=O)c3cccs3)cccc2C1=O	-5	0.5	17	-0.13
COc1ccc(NC(=O)N(C)C[C@H]2Oc3ccc(NS(=O)(=O)c4ccc(F)cc4)cc3C(=O)N([C@@H](C)CO)C[C@@H]2C)cc1	2	1.4	.	0.49
COc1cccc(OC)c1C(=O)Nc1ccc(Cl)c(-c2nc3ncccc3o2)c1	-6	-1.4	.	.
C[C@H]1CN([C@@H](C)CO)C(=O)c2cc(NC(=O)c3ccncc3)ccc2O[C@@H]1CN(C)Cc1ccc(C(=O)O)cc1	-5	1.5	.	0.21

(listing goes on)
SMILES	MITF inh	PD-1 reverse act	Hedgehog inh	YB-1 expr inh
C[C@@H]1O[C@@H](O[C@H]2[C@H](O[C@H]3CC[C@@]4(C)C(CC[C@]5(C)C4CC=C4C6CC(C)(C)CC[C@]6(C(=O)O[C@@H]6O[C@H](CO[C@@H]7O[C@H](CO)[C@@H](O[C@@H]8O[C@@H](C)[C@H](O)[C@@H](O)[C@H]8O)[C@H](O)[C@H]7O)[C@@H](O)[C@H](O)[C@H]6O)CC[C@]45C)C3(C)C)OC[C@H](O)[C@@H]2O)[C@H](O)[C@H](O)[C@H]1O (some centres undefined)	.	.	6	0.3
COc1ccc(NC(=O)Nc2ccc3c(c2)C(=O)N([C@H](C)CO)C[C@H](C)[C@@H](CN(C)Cc2ccc(C(=O)O)cc2)O3)cc1	0	1.1	-37	-0.048
Cc1noc(C)c1NC(=O)N(C)C[C@@H]1Oc2ccc(NC(=O)Nc3ccc(C(F)(F)F)cc3)cc2CC(=O)N([C@@H](C)CO)C[C@@H]1C	-24	-0.4	0	0.32
C[C@H]1CN([C@@H](C)CO)C(=O)c2cc(NC(=O)Nc3ccc(C(F)(F)F)cc3)ccc2O[C@H]1CN(C)C(=O)Nc1ccc2c(c1)OCO2	-20	-1.5	12	-0.12
CNC[C@H]1Oc2ccc(NS(=O)(=O)c3ccc(Cl)cc3)cc2CC(=O)N([C@H](C)CO)C[C@H]1C	-5	0.2	.	-0.076

Quoted from the listing.
Entry for COc1ccc(NC(=O)Nc2ccc3c(c2)C(=O)N([C@H](C)CO)C[C@H](C)[C@@H](CN(C)Cc2ccc(C(=O)O)cc2)O3)cc1 in YB-1 expr inh: -0.048
Entry for C[C@H]1CN([C@@H](C)CO)C(=O)c2cc(NC(=O)Nc3ccc(C(F)(F)F)cc3)ccc2O[C@H]1CN(C)C(=O)Nc1ccc2c(c1)OCO2 in Hedgehog inh: 12

Not all compounds are listed; count on the stated rates, not on these rows.
